PKD1 kinase inh: PKD1 (human) kinase inhibition; actives 0.056% (n = 200,000); PKD1 kinase fluorescence polarization assay; Q15139; inhibition, %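 (about 10 µM by stock and volumes)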; AID 797;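 active means inhibition of 50% or more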;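 further: controls were vehicle for no effect and a reference inhibitor for full effect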
Target sequence (Q15139 whole entry, looked up): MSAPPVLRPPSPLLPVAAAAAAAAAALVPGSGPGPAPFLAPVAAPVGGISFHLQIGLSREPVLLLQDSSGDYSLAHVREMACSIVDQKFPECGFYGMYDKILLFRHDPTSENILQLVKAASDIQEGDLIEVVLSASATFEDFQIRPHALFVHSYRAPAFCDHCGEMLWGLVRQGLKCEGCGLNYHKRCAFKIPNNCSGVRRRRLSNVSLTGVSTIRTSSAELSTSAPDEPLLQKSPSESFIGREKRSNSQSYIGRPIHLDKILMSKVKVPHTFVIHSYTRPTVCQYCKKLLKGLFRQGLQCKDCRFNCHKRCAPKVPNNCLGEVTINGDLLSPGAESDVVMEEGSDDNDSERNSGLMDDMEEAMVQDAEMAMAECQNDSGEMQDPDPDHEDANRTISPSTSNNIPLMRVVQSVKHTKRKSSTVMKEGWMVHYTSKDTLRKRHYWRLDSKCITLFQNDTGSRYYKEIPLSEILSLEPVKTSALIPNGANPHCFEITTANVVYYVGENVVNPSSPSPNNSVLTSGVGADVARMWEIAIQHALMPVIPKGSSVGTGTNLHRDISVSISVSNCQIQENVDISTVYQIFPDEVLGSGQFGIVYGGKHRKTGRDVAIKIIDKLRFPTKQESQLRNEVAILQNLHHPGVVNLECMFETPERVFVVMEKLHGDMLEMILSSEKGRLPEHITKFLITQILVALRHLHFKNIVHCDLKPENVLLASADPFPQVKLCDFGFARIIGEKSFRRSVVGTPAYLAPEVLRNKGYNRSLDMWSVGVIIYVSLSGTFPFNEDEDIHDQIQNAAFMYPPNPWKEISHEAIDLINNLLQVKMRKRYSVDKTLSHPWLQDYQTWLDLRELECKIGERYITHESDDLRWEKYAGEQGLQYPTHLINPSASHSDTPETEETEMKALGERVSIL
HSV augment: increases HSV replication in cells; HSV replication augmentation in cells, fold increase; maximum fold increase; actives 0.005% (n = 220,000); AID 1956;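 active means peak rise of 1.5-fold or more in the series; tested in PC3 cells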;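 further: first round at 10 µM; read as green reporter fluorescence; hits show the peak of a series up to 25 µM; 1 = signal of infected wells without compound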
GALR2 ag: GALR2 (human) receptor agonism. activation, %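 (tested at 5 µM)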. O43603. actives 0.48% (n = 140,000). GALR2-expressing cells, agonist activation read-out. AID 803;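 active means above mean plus 3 SD of all compounds, about 5% in these data, not always enough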;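 further: 0% = vehicle buffer wells and 100% = reference agonist at full effect; tested in CHO reporter cells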
RGS16-Gao: RGS16-Galphao interaction regulator (human). O15492+P09471. actives 0.38% (n = 220,000). binding response (% of control), % at 10 µM. bead-based flow cytometry RGS16-Galphao binding, fluorescence; actives lie on both sides;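 active means below 25% or above 175%, edge rows of some plates excepted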;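 further: Galphao activated by GDP with aluminum fluoride before binding; 100% = wells without compound and 0% = beads without RGS; some results beyond the cut were filed as inactive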
Insulin prom inh: TRM-6 insulin promoter activity inhibition. TRM-6 cells (human fetal islet line), insulin promoter-eGFP reporter, imaging; reporter expression induced with tamoxifen. inhibition, % at 2 µM. actives 0.9% (n = 130,000). AID 1273;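 active means inhibition above the mean plus 3 SD, with well images judged a real hit on visual review, cut at about 60% in these data, passing the limit was not always enough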
Insulin prom inh cell count: further read-out of Insulin prom inh, marked with its call; normalized cell count, %; measured here: cell count, toxicity; reference of the scale not given here;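 cells exposed to compound for 48 h; stained nuclei by imaging scaled within each plate; lower means fewer cells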
HSV augment primary fold: second read-out of HSV augment, no call of its own (marks repeat the call); fold increase; compound at 10 µM; measured here: primary screen fold increase 10 uM; tested in PC3 cells;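 GFP signal in the first replicate; 1 = infected wells without compound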
* marks the source's active call; other numbers are inactive results; i = inactive; . = not tested or not shown. Hits appear at their usual frequency. Share with any hit: about 1.1%.

Screens in order – PKD1 kinase inh	HSV augment	HSV augment primary fold	GALR2 ag	RGS16-Gao	Insulin prom inh	Insulin prom inh cell count
> CC(Sc1nc(N)cc(=O)[nH]1)C(=O)NC1CCCCC1 (centres undefined)
    1	i	0.87	-1.4	101	-15	150
> C=C1N(c2ccc(Cl)cc2)C(=O)OC1(C)C
    -3	i	0.96	-1.8	101	14	108
> C#CC[N+](C)(C)CCCCCCCCCCCC
    1	i	0.57	-0.7	99	17	88
> COc1cccc(-c2noc(-c3ccoc3C)n2)c1
    3	i	1.1	.	103	.	.
> CCc1ccc(NC(=O)C[n+]2cc(-c3ccc(C)cc3)n3c2CCC3)cc1
    .	i	1.1	.	108	.	.
> CCOC(=O)c1ccc(Nc2cc(C)nc3nc(C)nn23)cc1
    -12	.	.	-0.4	101	-30	95
> COc1ccc(S(=O)(=O)NCCSC(C)(C)C)c(Cl)c1Cl
    -11	i	1.1	-1.5	74	-4	118
> COc1ccc(N2C(=O)[C@@H]3[C@H](C2=O)[C@H](C(C)=O)N2c4ccccc4C=C[C@@H]32)cc1
    .	i	1.2	.	106	.	.
> CC(C)C(=O)Nc1ccc(NC(=O)c2cc3ccccc3o2)cc1
    -5	i	0.78	-2.7	81	28	96
> O=C(O)/C=C/C(=O)NNC(=O)c1ccc(Br)cc1
    2	i	1.2	0.1	55	-7	63
> Cc1noc(C)c1COc1ccc(C(=O)Nc2cccnc2)cc1
    -7	i	0.99	.	94	.	.
> CC/C(=N\NC(=O)c1ccc(N(C)C)cc1)c1ccccc1
    4	i	0.87	-0.9	104	50	153
> O=C(CSC(=S)N1CCOCC1)Nc1ncc2c(n1)CCCC2=O
    .	i	1.1	.	98	.	.
> Cn1c(N)c(C(c2ccccc2)c2c(N)n(C)c(=O)n(C)c2=O)c(=O)n(C)c1=O
    -11	i	0.99	-0.2	126	-3	35
> CC(=O)Nc1ccc(S(=O)(=O)N2CCSC2c2ccccc2)cc1 (centres undefined)
    3	i	1	0.0	106	32	70

Single entries from the entries so far:
RGS16-Gao result of CC/C(=N\NC(=O)c1ccc(N(C)C)cc1)c1ccccc1 stands at 104
PKD1 kinase inh result of Cn1c(N)c(C(c2ccccc2)c2c(N)n(C)c(=O)n(C)c2=O)c(=O)n(C)c1=O stands at -11
RGS16-Gao result of CC(=O)Nc1ccc(S(=O)(=O)N2CCSC2c2ccccc2)cc1 (centres undefined) stands at 106
PKD1 kinase inh result of C=C1N(c2ccc(Cl)cc2)C(=O)OC1(C)C stands at -3

Next entries:
Screens in order – PKD1 kinase inh	HSV augment	HSV augment primary fold	GALR2 ag	RGS16-Gao	Insulin prom inh	Insulin prom inh cell count
> CCc1ccc(S(=O)(=O)NCCc2csc(C)n2)s1
    2	i	1.1	.	99	0	97
> CC(C)Cc1cc(C(=O)NCc2cccnc2)no1
    -10	i	0.64	-2.6	103	.	.
> COc1ccc(-c2onc(C)c2-c2ccc3c(c2)OCCO3)c(O)c1
    -6	i	0.92	.	100	.	.
> O=C(CC1COc2ccccc2O1)NC1CCCCC1 (centres undefined)
    5	i	1	-2.0	102	-27	122
> O=C(CN1CCN(c2ccc(Cl)cc2[N+](=O)[O-])CC1)N1CCOCC1
    .	i	0.93	.	102	.	.
> CCOc1ccc(/C=C/C(=O)c2cc(Br)ccc(=O)c2O)cc1
    -21	i	1	0.6	102	.	.
> CC1CCCCC1NC(=O)Cn1nnc(-c2ccc(Cl)cc2)n1 (centres undefined)
    -11	i	0.88	2.8	102	35	86
> COc1ccc(N=C2SC(CC(=O)Nc3ccccc3)C(=O)N2CCN2CCOCC2)cc1 (centres undefined)
    -3	i	1.1	.	100	.	.
> CCOC(=O)NC(=O)/C(C#N)=C/c1ccc(N(C)C)cc1
    .	i	1.1	.	92	.	.
> COc1ccc(CNC(=O)CSc2nc3c(c(=O)n(C)c(=O)n3C)n2C)cc1
    -1	.	.	-0.4	.	-31	70
> CCOC(=O)CC(NC(=O)Cn1nnc(-c2ccccc2F)n1)c1ccc(OC)cc1 (centres undefined)
    1	i	0.97	.	100	.	.
> CCOC(=O)CNc1nc(Cl)nc(N2CCCCC2)n1
    .	i	0.94	.	104	.	.
> Cc1cc(-c2ccccc2C(=O)O)on1
    5	i	1.1	-1.8	97	.	.
> CCC1Oc2ccc(C)cc2N(Cc2cccc(C)c2)C1=O (centres undefined)
    0	i	1.1	-0.8	98	.	.
> CC(C)CNS(=O)(=O)c1ccc(S(=O)(=O)NC2CCOC(C)(C)C2)cc1 (centres undefined)
    1	i	0.81	-0.3	.	-231	106
> Cc1nn(-c2ccccc2)c2c1C(c1c(C)[nH]c(C#N)c1C)C(C#N)=C(N)O2 (centres undefined)
    -2	i	0.93	1.4	114	16	91
> CN(C)CCN=c1cc(-c2ccccc2)oc2ccc(Cl)cc12
    3	i	0.92	.	103	40	109
> Fc1ccc(NCc2nnc(SCc3ccccc3)o2)cc1
    -7	i	0.8	.	105	.	.
> COC(=O)c1ccc(CN2[C@H](C(=O)OC)C[C@@]3(O)[C@H](O)[C@H](O)[C@H](O)C[C@@H]23)cc1
    .	i	0.69	.	106	.	.
> COCCN1Cc2cccc(C(=O)Nc3cccnc3)c2C1=O
    -8	.	.	-0.1	100	36	89
> COc1ccc(N2CCN(C3=CC(=O)N(c4cccc(Cl)c4)C3=O)CC2)cc1
    -1	i	0.96	.	101	0	142
> Cc1ccc(S(=O)(=O)N2CCCCC2)cc1NC(=O)CSCC(=O)O
    -11	i	1	.	102	.	.
> COc1ccc(CCC(=O)Nc2ccc3c(c2)OCCO3)cc1
    -4	i	0.86	-0.9	102	-21	97
> CCn1c(Cn2nnc(-c3ccccc3)n2)nnc1SCC(=O)N1CCOCC1
    1	i	0.79	-4.7	98	53	125
> CCOC(=O)c1c(NC(=O)CC)sc(C(=O)N2CCCCC2)c1C
    -6	i	0.76	0.1	111	6	125
> CC(=O)Nc1cccc2c1C(=O)N(c1cccc(OC(C)=O)c1)C2=O
    10	i	0.88	.	91	13	66
> C/C=C/c1ccc(OCCN2CCc3ccccc3C2)c(OC)c1
    -9	i	1	-3.1	89	-7	118
> N#CCC(=O)N1CCCCCC1
    3	.	.	-3.1	99	-6	101
> COc1ccc(-c2cc(C(=O)NN)n(-c3ccccc3)n2)cc1
    10	i	1	-1.9	82	.	.
> CSc1ccc(C(=O)/C=C/c2ccc(N)cc2)cc1
    -11	i	0.77	-1.2	41	16	42

Filtered by structure, those above containing fluorine (2)
Screens in order – PKD1 kinase inh	HSV augment	HSV augment primary fold	GALR2 ag	RGS16-Gao	Insulin prom inh	Insulin prom inh cell count
> CCOC(=O)CC(NC(=O)Cn1nnc(-c2ccccc2F)n1)c1ccc(OC)cc1 (centres undefined)
    1	i	0.97	.	100	.	.
> Fc1ccc(NCc2nnc(SCc3ccccc3)o2)cc1
    -7	i	0.8	.	105	.	.

4 entries from above, as labelled records.
COc1ccc(N2C(=O)[C@@H]3[C@H](C2=O)[C@H](C(C)=O)N2c4ccccc4C=C[C@@H]32)cc1
  PKD1 kinase inh: .; HSV augment: i; HSV augment primary fold: 1.2; GALR2 ag: .; RGS16-Gao: 106; Insulin prom inh: .; Insulin prom inh cell count: .
CC(C)C(=O)Nc1ccc(NC(=O)c2cc3ccccc3o2)cc1
  PKD1 kinase inh: -5; HSV augment: i; HSV augment primary fold: 0.78; GALR2 ag: -2.7; RGS16-Gao: 81; Insulin prom inh: 28; Insulin prom inh cell count: 96
O=C(O)/C=C/C(=O)NNC(=O)c1ccc(Br)cc1
  PKD1 kinase inh: 2; HSV augment: i; HSV augment primary fold: 1.2; GALR2 ag: 0.1; RGS16-Gao: 55; Insulin prom inh: -7; Insulin prom inh cell count: 63
Cc1noc(C)c1COc1ccc(C(=O)Nc2cccnc2)cc1
  PKD1 kinase inh: -7; HSV augment: i; HSV augment primary fold: 0.99; GALR2 ag: .; RGS16-Gao: 94; Insulin prom inh: .; Insulin prom inh cell count: .

Other compounds:
Screens in order – PKD1 kinase inh	HSV augment	HSV augment primary fold	GALR2 ag	RGS16-Gao	Insulin prom inh	Insulin prom inh cell count
> Cc1cc(C)c[n+](CC(=O)c2ccc(NC(=O)c3ccccc3)cc2)c1
    5	i	0.94	.	113	0	124
> O=C(Nc1ccccc1)c1cnc2ccccc2n1
    8	i	1.1	-2.9	26	0	89
> Cc1cc(C)c(C)c(S(=O)(=O)N2CCCCC2C(=O)O)c1C (centres undefined)
    3	i	1.1	.	101	-38	113
> COc1ccc2c(c1)c(=O)oc1c(C)c(OCc3cc(C(=O)O)oc3C)ccc12
    3	i	0.92	.	104	30	129
> CN(C(=O)COc1ccccc1)c1nnc(-c2ccncc2)s1
    -3	i	0.96	-1.1	110	-25	82
> CCOC(=O)C(=CNc1ccc(C)cc1C)C(=O)OCC
    -7	i	1	-0.4	105	-4	69
> CN1CCN(C(=O)c2cc3ccccc3oc2=O)CC1
    -10	i	1.1	-1.4	94	63	65
> COc1ccccc1N1CCN(C(=O)CCSCc2ccccc2F)CC1
    -7	i	1	.	99	-61	92
> CN(C)C(=O)c1cn(-c2ccc(Cl)cc2)c(=O)c2ccccc12
    -5	i	1.1	.	104	.	.
> Cc1ccc(OCC(=O)Nc2ccc3c(c2)OCO3)c([N+](=O)[O-])n1
    6	i	0.74	-1.7	92	-14	141
> O=C1CSC(c2ccccn2)N1c1ccc(Br)cc1 (centres undefined)
    9	i	0.9	.	99	.	.
> CCNC(=S)N/N=C(\C)c1ccc(Cl)s1
    -4	i	0.94	2.0	99	-12	144
> CC1(C)Cc2c(c(-c3ccccc3)nc(N3CCCC3)c2C(N)=O)CO1
    -9	i	0.99	-1.5	101	.	.
> Cc1ccc(NC(=O)Nc2ccc3c(c2)N(C)C(=O)CS3)nc1
    -9	i	1	-0.8	99	8	103
> C=CCn1c(CSc2nc3ccccc3s2)nnc1SCC(=O)NCc1ccco1
    -12	i	0.86	-1.5	116	-45	140
> COc1cccc(C(CC(=O)Nc2cccc3ccccc23)NC(=O)c2ccccc2)c1 (centres undefined)
    -5	i	0.94	-0.7	105	-24	61
> COc1cc(OC)c(OC)cc1CN1CCCC(C(=O)c2ccc3c(c2)OCO3)C1 (centres undefined)
    -1	i	0.99	.	100	.	.
> NC(=O)c1ccsc1N
    -9	i	1.2	.	101	-12	114
> Cc1ccc(-n2ncc3c(=O)[nH]c(SCC(=O)N4CCN(c5ccccc5)CC4)nc32)cc1
    0	i	0.86	-0.9	111	50	112
> CC(C)(C)c1ccc(NC(=S)NCc2cccnc2)cc1
    .	i	1	.	99	.	.
> O=C(CC1CCCCC1)N1CCCC(c2nc(-c3ccc(S(=O)(=O)N4CCCC4)cc3)no2)C1 (centres undefined)
    -6	i	1	-1.3	105	-9	100
> CC(=O)c1ccc(N2CCN(C(=O)CCCn3c(=S)[nH]c4cc5c(cc4c3=O)OCO5)CC2)cc1
    -7	i	0.63	0.5	55	-136	150
> COc1ccc(-n2cc(-c3ccccc3)c3c(N4CC(C)OC(C)C4)ncnc32)cc1 (centres undefined)
    2	i	0.86	.	100	-14	117
> CCCCCCC(=O)NNC(=O)CC(=O)Nc1ccccc1C(=O)O
    -7	i	0.92	-0.7	89	10	70
> N#Cc1c(N)n(CCNC(=O)c2ccc(Cl)cc2)c2nc3ccccc3nc12
    -10	i	0.88	2.5	100	23	76
> O=C(NNC1CC(=O)N(c2ccc(F)cc2)C1=O)c1cccnc1 (centres undefined)
    .	i	0.86	.	102	.	.
> CCOC(=O)COc1ccc2c(=O)c(-c3ccccc3OC)coc2c1
    -4	i	0.99	.	101	.	.
> O=C(CN1CCN(c2ccccn2)CC1)Nc1cc(C(F)(F)F)ccc1Cl
    -3	i	0.93	-2.7	68	-35	115
> O=C(CSCc1cccc(Cl)c1)Nc1ccccc1-c1ccccc1
    2	i	0.94	-0.6	22	-8	71
> CC1C(=O)N(Cc2ccc([N+](=O)[O-])cc2)c2ccccc2N1C(=O)C1CC1 (centres undefined)
    -1	i	0.98	.	100	-21	87
> Cc1ccc(NC(=O)CCC(=O)NNC(=O)c2ccco2)c(C)c1
    -3	i	0.84	-2.1	106	-3	102
> COc1ccc2cc(C#N)c(SCC(=O)N3CC(=O)Nc4ccccc43)nc2c1
    .	i	0.85	.	105	.	.
> COC(=O)c1ccccc1NC(=O)NCc1ccco1
    -4	i	0.87	-2.5	108	-1	208
> CC1(C)NC(=O)N(CCCCOc2ccc(Br)cc2Cl)C1=O
    -4	i	0.75	0.0	105	-11	122
> Cc1[nH]c2ccc(-c3n[nH]c(=S)n3Cc3ccccc3)cc2c1C
    -8	i	0.78	-0.4	98	13	118
> N/C(=N\OS(=O)(=O)c1ccc2ccccc2c1)c1ccccn1
    -2	i	1	.	106	-8	71
> Oc1ccc(Br)cc1/C=N/N1CCN(Cc2cccc3ccccc23)CC1
    .	i	1.3	.	102	.	.
